Bioassay records (PubChem)
Calb biofilm kill: clotrimazole potentiators killing C. albicans biofilm, primary screen, 4-compound mixtures; inhibition, % at 7.6 µM; C. albicans biofilm persisters + clotrimazole, fluorescence viability; primary screen in compound mixtures of four per well; hit rate 0.02% among 120,000; AID 1242, 2008;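 active = inhibition above 30.3% in the primary screen of four-compound pools, then above 30% when the compound was retested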;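 note: compounds exposed to preformed 24 h biofilms for 48 h; the number belongs to the whole pool; some results filed as inactive read as strong as hits; inactives centre near 12; 0% = biofilm with clotrimazole alone and 100% = kill control; retested singly at about 60 µM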
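System: C. albicans CAF4-2 wild-type biofilms; Medium: RPMI/MOPS medium, pH 7.0; Reagent: Clotrimazole, 50 µg/mL; Times: biofilm formation 24 h, compound exposure 48 h, 37 °C; Detection: 2-h Alamar Blue fluorescence, 535/590 nm excitation/emission; Evaluation: percent inhibition of biofilm viability.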
Numbers without * were called inactive. The list is partial, so the mix of outcomes need not match the whole.

SMILES	Calb biofilm kill
CC(=O)c1cccc(NC(=O)C23CC4CC(C2)CC(n2cncn2)(C4)C3)c1	4.5
COCCNC(=O)C(OC(=O)CC1Sc2ccccc2NC1=O)c1ccccc1 (centres undefined)	12.5
CN(C)S(=O)(=O)c1ccc(C(=O)Nc2nnc(-c3ccco3)o2)cc1	20.5
COc1ccc(OC)c(NC(=O)CSc2nc3ccccc3c3nc4ccccc4n23)c1	12.4
CC(C)(C)c1cc(P(=O)(c2ccccc2)c2ccccc2)ccc1O	22.0
Cc1cccc(C)c1NC(=O)CNC(=O)C(NC(=O)c1ccc(C(C)(C)C)cc1)C(C)C (centres undefined)	17.5
COc1ccccc1CNCC(O)Cn1c2ccccc2c2ccccc21 (centres undefined)	12.7
CCS(=O)(=O)N1CCN(c2ccc(C(=O)N3CCOCC3)cc2[N+](=O)[O-])CC1	13.9
CCCc1ccc(NS(=O)(=O)c2c(C)oc(C)c2C(=O)OC)cc1	16.6
O=C(COC(=O)c1c2c(nc3ccccc13)/C(=C\c1cccs1)CCC2)Nc1ccccc1Cl	11.7
COC(=O)c1oc2c(c1C)C(=O)CC(C)(C)C2	14.8
Cc1ccc(-c2nnn(CC(=O)N(CC(=O)NC3CCCCC3)c3ccc(F)c(Cl)c3)n2)o1	12.9
COc1ccc(Cl)cc1C(=O)NCc1cnn(C)c1C	18.6
Cc1cnccc1CN(C)Cc1cn(C)nc1-c1ccc(Oc2ccccc2)cc1	14.0
CN(C)CCC(c1ccc(Br)cc1)c1ccccn1 (centres undefined)	12.4
CC1(C)[C@@H](O)CC[C@]2(C)C3C(O)C=C4[C@H]5C[C@@](C)(CO)CC[C@]5(C)CC[C@]4(C)[C@]3(C)CC[C@@H]12 (some centres undefined)	16.0
COC(=O)c1cc(NC(=O)CN2CCN(C(C)=O)CC2)cc(C(=O)OC)c1	18.1
Cc1cccc(CNc2ncc(-c3cccc([N+](=O)[O-])c3)n2C)c1	11.1
Cc1ccc(-n2c(SCc3nc4ccccc4[nH]3)nnc2-c2ccncc2)cc1	25.2
CC(C)(C)NC(=S)NCc1ccc2c(c1)OCO2	3.9
C=CCN1C=CC=C/C1=C1\SC(=S)N(C)C1=O	4.7
COc1ccc2nc(SCC(=O)Nc3nonc3C)[nH]c2c1	17.8
Cc1nnc(SCc2ccc(F)cc2)n1NC/C=C/c1ccccc1	8.2
COc1cc(/C=N/NC(=O)c2cc(-c3ccccc3OC(C)C)nc3ccccc23)ccc1O	10.5

Reprinted from the part before: 7 entries; new compounds follow.
SMILES	Calb biofilm kill
Cc1cccc(CNc2ncc(-c3cccc([N+](=O)[O-])c3)n2C)c1	11.1
Cc1ccc(-n2c(SCc3nc4ccccc4[nH]3)nnc2-c2ccncc2)cc1	25.2
CC(C)(C)NC(=S)NCc1ccc2c(c1)OCO2	3.9
C=CCN1C=CC=C/C1=C1\SC(=S)N(C)C1=O	4.7
COc1ccc2nc(SCC(=O)Nc3nonc3C)[nH]c2c1	17.8
Cc1nnc(SCc2ccc(F)cc2)n1NC/C=C/c1ccccc1	8.2
COc1cc(/C=N/NC(=O)c2cc(-c3ccccc3OC(C)C)nc3ccccc23)ccc1O	10.5
CCc1ccc2nc3sc(C(=O)N4CCc5ccccc54)c(N)c3cc2c1	18.2
CCS(=O)(=O)N1Cc2ccccc2CC1C(=O)Nc1nccs1 (centres undefined)	3.4
CC(=O)Nc1ccc(NC(=O)C2c3ccccc3Oc3ccccc32)cc1	4.8
CC(=O)c1cccc(NC(=O)c2ccc(OC3CSC3)cc2)c1	11.2
CC(=O)N=c1c(C#N)cc2c(=O)n3cccc(C)c3nc2n1CCCOC(C)C	20.0
COc1cc(/C=N/NC(=O)c2ccccc2)ccc1O	3.5
O=Cc1c(N2CCC3(CC2)OCCO3)nc2ccccn2c1=O	25.2
CN(C)c1ccc(C(c2ccc(N(C)C)cc2)c2ccc([N+](=O)[O-])cc2)cc1	18.5
N#C/C(=C\c1cccnc1)c1nc2ccccc2[nH]1	4.9
O=C(O)/C=C\C(=O)Nc1cc(O)ccc1[N+](=O)[O-]	26.1
CCOC(=O)CSc1nc2cc(C(=O)N3CCC(C(N)=O)CC3)ccc2c(=O)n1C1CCCCC1	11.8
COc1ccc(C2=NN(C(=O)CN3CCCC3)C(c3ccc(OC)cc3)C2)cc1 (centres undefined)	24.2
Cc1ccc(C(=O)c2oc3ccccc3c2NC(=O)c2cc(-c3cc(C)ccc3O)n[nH]2)cc1	3.2
O=c1[nH]c(-[n+]2ccccc2)c(/C=N/NC([S-])=Nc2ccccc2)s1	17.5
CCOc1ccc(N=C(C)C2=C(O)c3ccccc3C2=O)cc1	30.2
OC(COCCC12CC3CC(CC(C3)C1)C2)CN1CCCC1 (centres undefined)	9.9
COc1ccc(N2C(=O)/C(=C/N(C)C)NC2=S)cc1	9.4
Cc1cc(SCn2nnc3ccccc3c2=O)nc2ccccc12	9.8
CCC(C)(C)NC(=O)C(c1ccccn1)N(C(=O)c1csnn1)c1ccc(C)cc1 (centres undefined)	17.0
O=C1C=C(NNC(=O)c2ccccc2Br)CCC1	9.9
O=[N+]([O-])c1ccc(-c2ccc(/C=N/Nc3nc(N4CCCCC4)nc(N4CCCCC4)n3)o2)cc1	18.7
CO/N=C/c1ccc(N2CCOCC2)c([N+](=O)[O-])c1	18.1
N#CCCN(Cc1cccs1)C(=O)Nc1ccccc1	-0.2
O=C(O)Cc1c(C(=O)O)nnn1-c1cccc(C(F)(F)F)c1	-2.7
Cc1[nH]c(=S)c(C#N)c2c1CCCC2	1.2
CC(c1ccccc1)c1nnc(NC(=O)c2ccc3c(c2)OCO3)s1 (centres undefined)	10.0
N=c1c2c(ncn1CCN1CCOCC1)Oc1cc(O)ccc1C2c1ccccc1 (centres undefined)	9.8
CCS(=O)(=O)c1ccc2oc(=O)c(/C=C(\O)c3ccc(Cl)cc3)nc2c1	8.9
CN(CCC#N)C(=O)CC(Cc1ccccc1)C1CCOC(C)(C)C1 (centres undefined)	-1.4
C/C(=N\NC(=O)c1ccc([N+](=O)[O-])cc1)c1c(O)cc(C)oc1=O	1.0
CC(=O)N1CCc2cc(S(=O)(=O)NC(Cc3ccccc3)C(=O)NCCN3CCCCC3C)ccc21 (centres undefined)	14.2
CC(=O)Nc1ccccc1OC(C)C(=O)N1CC(C)CC(C)C1 (centres undefined)	11.4
CC(C)(C)C1CCC(=NNC(=O)CC(=O)NCc2ccccc2)CC1 (centres undefined)	6.0
CN(Cc1nc(-c2cccs2)no1)CC1COCCO1 (centres undefined)	10.3
COc1cc(/C=N/NC(=O)CN(Cc2ccco2)S(=O)(=O)c2ccccc2)ccc1O	12.4
N/C(=N\OC(=O)c1ccc([N+](=O)[O-])cc1)c1ccccn1	7.9
Cc1cccc(C(=O)Nc2nnc(-c3ccncc3)o2)c1	18.7
c1csc(CSc2nnc3sc4ccccc4n23)c1	2.0
Cc1cccc(NC(=O)CSc2nnc(NC(=O)c3ccco3)s2)c1	11.9
COc1ccc(CNC(=O)COC(=O)C2CCC(C(C)(C)C)CC2)cc1 (centres undefined)	18.1
CCOc1cccc(C(=O)NC(=S)Nc2ccc(N3CCN(CC)CC3)cc2)c1	12.9
COc1ccc(Nc2ccc(C(N)=O)cc2[N+](=O)[O-])cc1	10.2
CCC(=O)OCn1nnc2ccccc2c1=O	29.9
C#CCOCCOCCOCCNc1nc(N2CCN(C(=O)[C@H](CCCCN)n3cc([C@@H](N)CO)nn3)CC2)nc(N2CCN(C(=O)[C@H](Cc3ccc(O)cc3)n3cc([C@@H](N)CC(C)C)nn3)CC2)n1	17.2
O=c1[nH]cnc(O)c1C(c1cccc([N+](=O)[O-])c1)c1c(O)nc[nH]c1=O	23.7
CCCC1=[N+](CC(=O)c2ccc(C)cc2)CCn2cccc21	13.6
Cc1ccc(-c2nnc(N)o2)cc1	4.8
CC(C)(C)NC(=O)C(c1ccncc1)N(C(=O)Cn1nnc(-c2ccc(F)cc2)n1)c1ccc(F)cc1 (centres undefined)	9.2

Look-ups from the list:
COc1ccc(CNC(=O)COC(=O)C2CCC(C(C)(C)C)CC2)cc1 (centres undefined) – Calb biofilm kill = 18.1
CCOc1cccc(C(=O)NC(=S)Nc2ccc(N3CCN(CC)CC3)cc2)c1 – Calb biofilm kill = 12.9
Cc1cccc(NC(=O)CSc2nnc(NC(=O)c3ccco3)s2)c1 – Calb biofilm kill = 11.9

Next structures
SMILES	Calb biofilm kill
COc1ccc(CCC(=O)NNC(=S)NCc2ccc(F)cc2)cc1	8.5
CCCNc1c(N)c(=O)c1=O	21.8
O=C(CCc1nnc(CCCCc2ccccc2)o1)N1CCCC(O)C1 (centres undefined)	24.1
Cc1no[n+]([O-])c1COc1ccc(/C=N/n2nnnc2N)cc1	6.8
Cc1ccc(NS(=O)(=O)c2cc([N+](=O)[O-])ccc2NNC(=S)Nc2cccc(Cl)c2)c(C)c1	18.6
COc1ccc2oc(=O)c(-c3nc4ccccc4o3)cc2c1	2.4
Cc1noc(C)c1COc1cccc(C(=O)N2CCc3ccccc32)c1	13.1
COc1ccc(CCNC(=S)NC2CCN(Cc3ccccc3)CC2)cc1OC	13.0
CN(C)CC(C)(C)CNC(=O)CC1C(=O)NCCN1Cc1ccc(-c2ccccc2)cc1 (centres undefined)	-0.9
Cc1c(NC(=O)CN2CCN(c3ccc(F)cc3)CC2)c(=O)n(-c2ccccc2)n1C	17.6
O=c1cc(O)c2sc(Nc3cccc(C(F)(F)F)c3)nc2[nH]1	13.4
O=C(O)c1cccc(CN2C(=O)S/C(=C/c3ccccc3[N+](=O)[O-])C2=O)c1	19.1
O=C1/C(=C/c2ccccc2O)SC(=S)N1Cc1cccnc1	9.3
Cc1ccc(S(=O)(=O)NC(=O)Nc2ncc3c(n2)CC(c2ccco2)CC3=O)cc1 (centres undefined)	7.6
CCOC(=O)c1[nH]c(C)c(C(=O)OCCOc2cccc(C)c2)c1C	16.0
Cc1c(CCO)sc[n+]1CC(=O)OC12CC3CC(CC(C3)C1)C2	4.5
CC(=O)N1CC(=O)N=C1SCC(=O)Nc1nc(-c2ccccc2)c(-c2ccccc2)s1	5.4
COc1ccc(/C=N/Nc2nncc3ccccc23)cc1	16.7
Cc1occc1C(=O)N/N=C/c1ccc(Cl)c([N+](=O)[O-])c1	17.5
Cc1nnc2ccc(-c3ccc(NC(=O)Cc4cccs4)cc3)nn12	9.9
CC(=O)Nc1nnc(SCc2ccc(C(=O)Nc3ccccc3F)cc2)s1	19.9
CCCN1C(=O)c2cc(C(=O)Nc3ccc(OC)cc3OC)ccc2C1Nc1ccc(OC)cc1OC (centres undefined)	12.4
Cn1cc(CN2CCC(C(O)CCc3ccccc3)CC2)c(-c2ccccc2F)n1 (centres undefined)	13.2
CN(C(=O)CSc1cc(C(=O)c2nccn2C)c2ccccc2n1)c1ccccc1	23.1
COc1ccc(S(=O)(=O)N2CCCCC2)cc1NC(=O)C1CCCO1 (centres undefined)	6.7
Cc1ccccc1NC(=S)NC(C)CCc1ccccc1 (centres undefined)	27.3
CC1=NNC(=O)C1CC(=O)N/N=C/C(C)=C/c1ccccc1 (centres undefined)	14.5
O=C(NC(=S)NCc1cccnc1)c1ccccc1[N+](=O)[O-]	15.8
Cc1cccc(C)c1OCCN1C(=O)NC(C)(c2ccccc2)C1=O (centres undefined)	-9.2
O=C(CC1Sc2ccccc2NC1=O)OCc1cc(=O)oc2cc(O)ccc12 (centres undefined)	7.9
CCn1cc(C(=O)N2CCN(c3ccc(OC)cc3)CC2)c(=O)c2cc(S(=O)(=O)N3CCCCC3)ccc21	-5.5
Cc1ccccc1NC(=S)Nc1cccc2cnccc12	-8.2
O=C(NC(=S)Nc1cccc(NC(=S)NC(=O)c2ccco2)n1)c1ccco1	23.8
C1=C(CCNc2ncnc3c2[nH]c2ccccc23)CCCC1	26.5
COc1ccccc1/C=C/C=N/NC(=O)c1ccc(=O)n(C)c1	14.9
Cc1cc(C)c2nc(C)cc(Nc3ccc(C(=O)N(C)C)cc3)c2c1	10.5
CCOC(=O)c1nc2sc3c(c2c(=O)[nH]1)CCCC3	17.6
Cc1nccn1-c1cc(C(C)(C)C)nc2c(-c3ccccc3)cnn12	14.7
COc1ccc(C)cc1NC(=S)NC12CN3CN(CN(C3)C1)C2	4.5
CN(C)/C=C/C(=O)c1cnc(-c2ccccc2Cl)s1	8.4
Cc1nc(C)c(/C(O)=C/c2nc3ccc([N+](=O)[O-])cc3oc2=O)o1	-2.4
CC1CN(S(=O)(=O)c2ccc(C(=O)O)cc2)CC(C)O1 (centres undefined)	2.5
CC(=O)c1ccccc1OC(=O)COc1ccc(Cl)cc1C	13.4
Nn1c(SCC(=O)N2CCOCC2)nnc1C1CC1	3.1
Cc1cc(NC(=O)CCC(=O)NNC(=O)c2ccc(C(C)(C)C)cc2)no1	-15.4
COc1ccccc1/C=C/C=N/NC(=O)CCn1nnc2ccccc21	12.6
Cc1cc(C)c(S(=O)(=O)N2CCN(C(=O)c3cccs3)CC2)c(C)c1	7.7
CCC(=O)Oc1ccc2c(C)cc(=O)oc2c1C(=O)c1ccccc1	11.1
S=C(NCCc1ccccc1)Nc1ccccn1	11.2
CN(c1cccc(NC(=O)CN(c2cccc(F)c2)S(C)(=O)=O)c1)S(C)(=O)=O	10.3
Cc1nc(Cl)c(C(=O)NCc2ccccc2)c(C)c1Cl	7.3
COc1ccccc1OCC(=O)Nc1nc(-c2ccc(S(=O)(=O)N3CCOCC3)cc2)cs1	15.4
COc1ccccc1C(=O)NCc1n[nH]c(=S)n1Cc1ccccc1	6.3

4 entries from above in a different format.
Structure,Calb biofilm kill
S=C(NCCc1ccccc1)Nc1ccccn1,11.2
CN(c1cccc(NC(=O)CN(c2cccc(F)c2)S(C)(=O)=O)c1)S(C)(=O)=O,10.3
Cc1nc(Cl)c(C(=O)NCc2ccccc2)c(C)c1Cl,7.3
COc1ccccc1OCC(=O)Nc1nc(-c2ccc(S(=O)(=O)N3CCOCC3)cc2)cs1,15.4
